Sfp inh: qHTS Assay for Inhibitors of Bacillus subtilis Sfp phosphopantetheinyl transferase (PPTase); actives 3.5% (n = 310,000); Potency, µM, for the others: max response, negative = inhibition, usual class: inhibitors; Biochemical Sfp PPTase activity, qHTS; 4'-phosphopantetheinyl transferase ffp (Bacillus subtilis), Q9F4F7; AID 1490, 2009; active = well fitted inhibition curve with a large enough effect; inconclusive = small, poorly fitted or top-dose-only effect, or another doubt; inactive = no such curve, though single readings can be large or run the other way;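 also: the enzyme is Sfp with the accession as filed and its product quenches rhodamine fluorescence; potency is read from the fitted curve at half-maximal effect; 0% = enzyme reaction without inhibitor and -100% = no enzyme wells; top concentration of the series not given in the record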
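Buffer: 50 mM Hepes-Na pH 7.6, 10 mM MgCl2, 0.01% Nonidet P-40, 0.01% BSA. Enzyme 15 nM, pre-exposed to compound 15 min; substrates then added and fluorescence change tracked over 30 min.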
PINK1 expr mod: A Quantitative High throughput Screen to Identify Chemical Modulators of PINK1 Expression; PINK1 immunofluorescence, high-content cytometry, 24 h; Potency, µM (doses to about 76.6 µM), inactives show top-dose activation (PINK1 increase), most hits filed as activators; actives 0.2% (n = 410,000); AID 624263, 2012; active = well fitted activation curve with a large enough effect; inconclusive = small, poorly fitted or top-dose-only effect; inactive = flat fitted curve, though single readings scatter; cell line not stated here;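 also: potency is read from the fitted curve at half-maximal effect; % of control where 0% means no effect; nearly all actives have a fitted effect of over 65% in size; a mitochondrial uncoupler was the plate control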
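Fluorescence from anti-PINK1 antibody, together with nuclear and cell stains, was scanned on a laser-scanning cytometer. Before staining, stable-line cells were incubated 24 hours with compounds at 5 concentrations; primary antibody 12 h at 10 degrees C.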
Six1-Eya2 inh: qHTS Assay for Inhibitors of the Six1/Eya2 Interaction; actives 0.56% (n = 360,000); activity change, % (concentration not given with the values); AID 651725, 2012; Homeobox protein SIX1 (Homo sapiens) + Protein phosphatase EYA2 (Homo sapiens), …; AlphaScreen GST-Six1/His-Eya2 binding, biochemical; hits give low values; control for the full effect not named in the record; in the data active = activity change below about -65%; inconclusive = about -30% to -65%; inactive = above about -30%; also: % is scaled to controls: 0 for no effect and ±100 for the full control effect
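GST-Six1 + His-Eya2 (5X stock: 250/500 nM); Tris pH 8.0, 300 mM NaCl, 0.05% BSA, 0.02% Tween 20; GSH donor/Ni acceptor beads; 1 h 37 °C dark; AlphaScreen readout.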
D2 PAM: Beta-Arrestin HTS for Positive Allosteric Modulators of the Human D2 Dopamine Receptor: Potentiators; actives 0.23% (n = 360,000); DiscoveRx D2 beta-arrestin cells, luminescence, 90 min; 100% = 57 uM dopamine signal; D(2) dopamine receptor (Homo sapiens), P14416; potentiation, % (concentration not given with the values); active = potentiation of 50% or more; inconclusive = 30% to 50%; inactive = 30% or less;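 also: compound concentration not given in the record; tested on top of an EC20 dose of dopamine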
Target sequence (P14416 whole entry, looked up): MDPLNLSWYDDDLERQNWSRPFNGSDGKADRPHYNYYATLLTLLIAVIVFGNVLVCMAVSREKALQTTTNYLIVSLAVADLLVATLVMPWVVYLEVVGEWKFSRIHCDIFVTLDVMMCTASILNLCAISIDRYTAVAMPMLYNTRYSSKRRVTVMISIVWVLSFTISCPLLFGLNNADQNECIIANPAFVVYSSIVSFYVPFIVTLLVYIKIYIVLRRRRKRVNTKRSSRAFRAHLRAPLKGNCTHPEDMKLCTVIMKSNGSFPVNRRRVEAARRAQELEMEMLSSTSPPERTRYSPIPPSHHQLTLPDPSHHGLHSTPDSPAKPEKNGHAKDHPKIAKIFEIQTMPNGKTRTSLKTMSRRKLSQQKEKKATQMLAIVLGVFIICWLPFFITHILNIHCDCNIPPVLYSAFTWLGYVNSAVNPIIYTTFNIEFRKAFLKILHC
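PathHunter beta-arrestin assay in DiscoveRx D2 cells. Compounds were added with an EC20 of dopamine (50 nM final) for 90 min at 37 deg C. Luminescence was read 1 h after detection reagent, with 57 uM dopamine as the EC100 control.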
CtBP-E1A inh: qHTS Assay for Inhibitors of the CtBP/E1A Interaction; CtBP / adenovirus E1A interaction (AlphaScreen); AlphaScreen GST-E1A/His-CtBP binding, 1536-well; hits give low values; control for the full effect not named in the record; activity change, % (no concentration beside the values); actives 0.49% (n = 340,000); in the data active means activity change below about -65%; inconclusive means about -30% to -65%; inactive means above about -30%; also: % is scaled to controls: 0 for no effect and ±100 for the full control effect; compound concentration not given in the record
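Protein mix (5X: 125 nM each GST-E1A, His-CtBP) was incubated with pinned compound 2 h at 37 deg C in dark, in 50 mM Tris pH 8.0 buffer with 300 mM NaCl. Glutathione donor and nickel acceptor beads followed; AlphaScreen signal read after 1 h.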
TRPV1 potentiator: HTS Assay for Compounds that Act as Potentiators of the Vanilloid Receptor 1; Transient receptor potential cation channel subfamily V member 1 (Homo sapiens), Q8NER1; TRPV1-expressing cells, Fluo-8 calcium influx, capsaicin EC20 potentiation; host cell line not named in the record; control for the full effect not named in the record; potentiation, % at 8.33 µM; actives 0.02% (n = 320,000); AID 540277, 2011; active means potentiation above 80%; inconclusive means 30% to 80%; inactive means below 30%; also: 0% is about no effect
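TRPV1-expressing cells were cultured overnight at 35.5C and loaded with Fluo-8 calcium dye for 40 to 90 min at room temperature. After a 10 s baseline, compound was added and calcium influx was read kinetically for 3 min (ex 480/em 520 nm).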
D2 ag: Beta-Arrestin HTS for Positive Allosteric Modulators of the Human D2 Dopamine Receptor: Agonists. actives 0.084% (n = 360,000). DiscoveRx PathHunter D2 beta-arrestin, luminescence, 90 min; 100% = 57 uM dopamine signal. D(2) dopamine receptor (Homo sapiens), P14416. activation, % (test concentration not listed); in the data active = activation above about 40%; inconclusive = about 15% to 40%; inactive = below about 15%; also: compound concentration not given in the record; the text of the record calls up to 30% inactive
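DiscoveRx PathHunter D2 beta-arrestin cells (2,100/well) attached overnight, then compound-stimulated 90 min at 37 C in HBSS/10 mM HEPES/0.1% Tween-20 buffer; beta-galactosidase complementation read by luminescence after 1 h at ambient temperature. Dopamine 57 uM final (EC100) as control.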
The depositor's hits bear a star; ? = inconclusive; / = not tested or not shown; & = joins results of further samples; [ ] = remark or other dose.

1: CCOC(=O)c1ccc(NC(=O)Cn2nnc(-c3ccc(C)cc3)n2)cc1
2: Cc1oc(-c2ccc(Cl)cc2)nc1CN1CCCC(C(=O)NCCCN2CCOCC2)C1 (stereo not given)
3: O=C(c1ccccc1)N1N=C(c2ccccc2O)CC1c1ccccc1 (stereo not given)
4: CSc1nc(SCCN(C)C)c2c3c(sc2n1)COC(C)(C)C3
5: CC(=O)c1cccc(NC(=O)NNC(=O)c2ccc(-c3ccccc3)cc2)c1
6: COc1ccc(-c2nnc(SCC(=O)NCc3cccs3)n2C(C)C)cc1
7: CCOc1cc(/C=N\NC(=O)C2C(=O)NCC2c2ccccc2)ccc1OC (stereo not given)
8: Cc1nc(Nc2nc3ccccc3o2)nc2c1CCC2
Screen / compound no.,1,2,3,4,5,6,7,8
D2 ag,0.9,-2.4,3.1,-4.0,-0.2,0.7,-2.7,-0.3
TRPV1 potentiator,-5,-1,-10,/,3,12,-5,-18
D2 PAM,-10,-20,0,-14,-3,0,-9,-2
Sfp inh,1%,20%,10%,6%,11%,18%,-3%,-2%
PINK1 expr mod,-0.4%,12%,8.2%,2.7%,3.4%,5.0%,0.4%,-2.2%
Six1-Eya2 inh,3,0,-3,?,3,-1,4,6
CtBP-E1A inh,2,-5,4,-24,0,14,3,-3

9: CC(C)(C)OC(=O)NCc1ccc(NC(=O)c2nc[nH]c2C(=O)NCCCNC(=O)c2[nH]cnc2C(=O)Nc2ccc(CNC(=O)OC(C)(C)C)cc2)cc1
10: NS(=O)(=O)c1ccc(NC(=S)NC(=O)c2ccc(Br)o2)cc1
11: C/C(=N\NC(=O)c1nnn(-c2nonc2N)c1-c1cccs1)c1ccc(O)cc1
12: Cc1ccc2nsnc2c1S(=O)(=O)NCCc1c(C)[nH]c2ccc(F)cc12
13: CCOP(=O)(OCC)C(NC(=O)NS(=O)(=O)c1ccc(C)cc1)c1ccccc1 (stereo not given)
14: COc1ccc(CCNc2nc3ccc(C)cc3n3cnnc23)cc1OC
15: CCCCN(CC)CCCNC(=O)Cn1nc(Cc2ccncc2)c2ccccc2c1=O
16: COC(=O)/C=C/c1ccc2c(c1)S(=O)(=O)N(c1cccc(OC)c1)[C@H]2CC(=O)OC
Screen / compound no.,9,10,11,12,13,14,15,16
D2 ag,?,-5.6,-2.8,-2.4,-4.6,-0.4,0.7,-1.6
TRPV1 potentiator,/,-6,-1,8,1,3,-7,/
D2 PAM,30,-7,-3,-17,-4,-9,-9,-2
Sfp inh,/,56µM*,17%,15%,9%,12%,19%,/
PINK1 expr mod,2.8%,26%,3.0%,6.6%[38.3 µM],3.2%,2.9%&-0.4%,-1.8%[38.3 µM],1.2%
Six1-Eya2 inh,5,-3,-5,-8,1,6,0,0
CtBP-E1A inh,-4,/,0,-9,13,/,-2,-7

Profiles as entered above. Values in the order: D2 ag, TRPV1 potentiator, D2 PAM, Sfp inh, PINK1 expr mod, Six1-Eya2 inh, CtBP-E1A inh
`C/C(=N\NC(=O)c1nnn(-c2nonc2N)c1-c1cccs1)c1ccc(O)cc1` is listed with -2.8, -1, -3, 17%, 3.0%, -5, 0
`COc1ccc(CCNc2nc3ccc(C)cc3n3cnnc23)cc1OC` is listed with -0.4, 3, -9, 12%, 2.9%&-0.4%, 6, /
`CCCCN(CC)CCCNC(=O)Cn1nc(Cc2ccncc2)c2ccccc2c1=O` is listed with 0.7, -7, -9, 19%, -1.8%[38.3 µM], 0, -2
`CC(C)(C)OC(=O)NCc1ccc(NC(=O)c2nc[nH]c2C(=O)NCCCNC(=O)c2[nH]cnc2C(=O)Nc2ccc(CNC(=O)OC(C)(C)C)cc2)cc1` is listed with ?, /, 30, /, 2.8%, 5, -4
`CCOP(=O)(OCC)C(NC(=O)NS(=O)(=O)c1ccc(C)cc1)c1ccccc1` (stereo not given) is listed with -4.6, 1, -4, 9%, 3.2%, 1, 13

Next compounds
17: CCN(CC)C(=S)SCC(=O)Nc1ncc2c(n1)CC(C)(C)CC2=O
18: Cc1ccc2c(c1)/C(=N/OC(=O)c1ccc(F)cc1)CCS2
19: COc1ccc(C(=O)CSc2n[nH]c(-c3ccco3)n2)cc1
20: Cc1cccnc1NC(=O)CCC(=O)c1cccs1
21: Cc1noc(C)c1NC(=O)N(C)C[C@@H]1Oc2ccc(NC(=O)CCC(F)(F)F)cc2CC(=O)N([C@@H](C)CO)C[C@@H]1C
22: O=C(NCCN1CCCCC1)c1cc2ccccc2[nH]1
23: O=[N+]([O-])c1ccc(CN2CC(N3CCC(c4ccccc4)CC3)CS2(=O)=O)cc1 (stereo not given)
24: CSC1=N/C(=C\c2ccc(C)s2)C(=O)S1
Screen / compound no.,17,18,19,20,21,22,23,24
D2 ag,0.9,-2.5,2.1,2.1,-3.5,-0.8,3.2,-6.7
TRPV1 potentiator,-9,29,1,3,/,2,/,-13
D2 PAM,0,-6,-12,1,-3,-10,-8,-9
Sfp inh,1%,-27%,?,/,/,16%,/,-11%
PINK1 expr mod,0.7%,?,-1.9%,0.9%,0.6%,-0.3%,3.4%,1.4%
Six1-Eya2 inh,9,4,2,2,10,1,-9,-6
CtBP-E1A inh,5,11,-12,-2,11,-3,-22,-4

25: S=C(Nc1ccccc1)NC1CCN(Cc2ccccc2)CC1
26: CC1CCCCC1NC(=O)CN(C)S(=O)(=O)c1ccc2c(c1)CCC(=O)N2 (stereo not given)
27: O=C(CSc1nnnn1-c1ccc(C(=O)O)cc1)NC1CCCCC1
28: O=S(=O)(Nc1ccc(S(=O)(=O)Nc2ncccn2)cc1)c1ccc(Cl)cc1
29: CCCN1C(=O)c2ccc(C(=O)Nc3nccs3)cc2C1=O
Screen / compound no.,25,26,27,28,29
D2 ag,-4.2,2.9,-1.1,0.4,-2.3
TRPV1 potentiator,-17,-11,-20,12,-16
D2 PAM,-39,-5,-5,-4,-14
Sfp inh,-2%,1%,16%,19%,-4%
PINK1 expr mod,0.9%,-1.5%,4.0%,1.2%,4.3%
Six1-Eya2 inh,12,2,3,10,-1
CtBP-E1A inh,0,4,5,-1,6
